StopGo FLuc: FMDV 2A StopGo reporter, firefly signal | Potency, µM (highest dose often 57.5 µM), for inactives: at the highest dose signal change, negative = less light | HEK cells with a luciferase reporter of 2A StopGo recoding | actives 0.23% (n = 120,000); active = well fitted falling curve with a large enough effect; inconclusive = small, poorly fitted or top-dose-only effect; inactive = no such curve, though single readings can be large or run the other way; further: nearly all actives have a fitted effect of over 60% in size; overnight with compound
2A Renilla: FMDV 2A StopGo reporter, Renilla signal. HEK cells with a luciferase reporter of 2A StopGo recoding. Potency, µM (top dose mostly 57.5 µM), inactives show at the highest dose signal change, negative = less light. actives 0.32% (n = 120,000). AID 1745857; active means well fitted falling curve with a large enough effect; inconclusive means small, poorly fitted or top-dose-only effect; inactive means no such curve, though single readings can be large or run the other way; further: nearly all actives have a fitted effect of over 55% in size; overnight with compound
Starred values were filed as active, the others as inactive; ? = inconclusive; & = joins results of further samples; [ ] = dose if it differs, or a comment. On the % scale 0 is the no-effect control and ±100 the full control effect; potency means the concentration at half of the fitted maximal effect. An excerpt, so the mix of outcomes need not match the whole.

Molecule	StopGo FLuc	2A Renilla
N#Cc1ccc(/C=C/C(=O)c2ccc3c(c2)CCC3)cc1	16%	18%
COc1ccc(NC(=O)CN2C(=O)COc3ccc(S(=O)(=O)N4CCCCC4)cc32)cc1Cl	-9%	22%
COc1cccc(CNC(=O)c2cccc(NC(=O)c3nsc4ccccc34)c2)c1	120%[activator]	30%
Cc1nc(SCCOc2ccc(Cl)cc2)[nH]c(=O)c1Cc1ccccc1	21%	-1%
Fc1ccccc1CNC1C2CC3CC(C2)CC1C3 (configuration not stated)	5%	-3%
CCOC(=O)CCNC(=O)N1CCCCCC1c1ccc(C)s1 (configuration not stated)	29%	8%
CC(NC(=O)C1CCCCC1)c1ccc(NC(=O)C2CC2)cc1 (configuration not stated)	11%	6%
CN(C)NC(=S)Nc1ccc([N+](=O)[O-])cc1	48%[activator]	0%
O=C(Nc1cc2c(cc1C(=O)C1CC1)OCCO2)c1ccco1	9%	1%
CCOC(=O)Cn1c(=O)n(CC2CCCO2)c2nc(-c3ccccc3)nc(C(N)=O)c21 (configuration not stated)	-2%	-2%
CCOc1cc(/C=C/C(=O)c2ccc(Cl)c(Cl)c2)ccc1O	0%	5%
CC(C)OC(=O)c1ccc2cc(C(=O)OC(C)C)ccc2c1	108%[activator]	3%
COc1cc(NC(=O)NC(C)c2ccc(Cl)cc2Cl)cc(OC)c1OC (configuration not stated)	-9%	-7%
CCOc1ccc(C(=O)N2CC(=O)Nc3ccc(C)cc3C2c2ccc(F)cc2)cc1OCC (configuration not stated)	-6%	41%[activator]
C=C(Cl)COc1ccc(Cl)cc1C(N)=O	-3%	-1%
Cc1ccc2c(c1)cc1c(=O)n(CC(=O)N(C)c3ccccc3)nc(C)n12	-8%	-14%
COc1ccc(OC)c(S(=O)(=O)N2CCN(c3cccc(C)c3C)CC2)c1	1%	79%[activator]
Cc1ccc(C)c(NC(=O)c2ccc(=O)n(CCOc3ccccc3)n2)c1	-3%	1%
CCOc1ccc(Sc2cc(C(=O)NCc3ccc(F)cc3)c3ccccc3n2)cc1	2%	-13%
CC(C)c1ccc(-c2nn(-c3ccccc3)cc2/C=N/O)cc1	19%	1%
CC(C)(C)c1ccc(/C=N/NC(=O)C23CC4CC(CC(C4)C2)C3)cc1	41%[activator]	10%
Cc1ccc(-c2cc(NC(=O)c3cccc(C)c3)on2)cc1	109%[activator]	24%
COc1ccc(C(=O)c2sc(Nc3cccc(C)c3)nc2N)cc1	60%[activator]	22%
COc1ccc(CCNC(=O)Cc2c(C)c3ccc(OC(C)=O)c(OC(C)=O)c3oc2=O)cc1	0%	14%
CCOC(=O)c1c(NC(=O)c2noc3c2CC(C(C)(C)C)CC3)sc2c1CCCC2 (configuration not stated)	-16%	-6%
C/C(=C/C(=O)NCC1CCN(Cc2cccs2)CC1)C1CC1	-5%	-5%
C=CCOc1ccc(CNc2ccc(Oc3ccccc3)cc2)cc1OC	0%	2%
O=C(N/N=C/c1ccc([N+](=O)[O-])s1)C1CCCCC1	18%	-20%
CCCN(CCC)C(=O)Cn1c(=O)n(-c2cccc(OC)c2)c(=O)c2c3c(sc21)CCCC3	-13%	-17%
C=CCN(Cc1cccs1)C(=O)c1ccncc1	132%[activator]	6%
CCCCCCOc1ccc(OC(=O)c2cncc(Br)c2)cc1	12%	10%
COc1cc(CN(C(=O)c2oc3ccccc3c2C)C2CCS(=O)(=O)C2)cc(OC)c1OC (configuration not stated)	27%	0%
CCN(Cc1ccc(OC)c(F)c1)C(=O)CN1CCC(c2nc3ccccc3s2)CC1	7%	5%
Cc1ccccc1-c1nc2c3c(-c4ccccc4)c(-c4ccccc4)oc3ncn2n1	21%	?
COc1ccccc1N1CCN(CC(O)COc2ccc(Cl)c(C)c2)CC1 (configuration not stated)	-14%	-20%
Cc1ccc(-n2ncc(C(=O)NCCCN3CCCCC3)c2C2CCN(C(=O)OC(C)(C)C)CC2)c(C)c1	-16%	5%
Cc1oc(-c2nc(C#N)c(N(C)Cc3ccccc3)o2)cc1S(=O)(=O)N(C)C	-8%	47%[activator]
COc1ccc(OCC(=O)N2CCN(C(=O)c3cccc(OC)c3OC)CC2)cc1	3%	-1%
COc1ccc(-c2ccc3c(N)c(C(=O)NCc4ccc(Cl)cc4)sc3n2)cc1	17%	-2%
Cc1nc(NC(C)C)sc1C(=O)NCC(C)C	29%	-1%
O=C(/C=C/c1ccc(F)cc1)NNC(=O)C1CCCCC1	23%	14%
CCOc1ccccc1NC(=O)Cn1ccn(-c2ccccc2)c(=O)c1=O	0%	5%
CCN(CC)S(=O)(=O)N1CCCC(c2nc3ccccc3o2)C1 (configuration not stated)	39%[activator]	-1%
Cc1ccc(C)c(N2CCN(C(=O)CCS(=O)(=O)c3cccc4nsnc34)CC2)c1	?	-34%
c1ccc2occc2c1	-19%[115 µM]	8%[114 µM]
O=C(c1cc2ccccc2oc1=O)N1CCC(Cc2ccccc2)CC1	17%	16%
Cc1c(NC(=O)Cc2ccc(F)cc2)cccc1-c1nc2cccnc2s1	10%	5%
O=C(COC(=O)c1cc(-c2cccs2)nc2ccccc12)c1ccc(Br)cc1	0%	2%
COc1cc(NC(=O)N2CCC3(CC2)N=C(c2cccc(Cl)c2)C(=O)N3)cc(OC)c1OC	-7%	-11%
COc1ccc(-c2cc(C(=O)NCc3ccc(F)cc3)c3c(-c4ccc(F)cc4)[nH]nc3n2)cc1OC	-11%	1%
CCN(C(=O)C(Sc1ccccc1)c1ccccc1)C1CCCCC1 (configuration not stated)	-20%	-5%
CC(=O)Nc1cccc(NC(=O)CSc2ccc(-c3sc(-c4ccccc4)nc3C)nn2)c1	22%	-28%
CCN(CC)c1ccc(Nc2nc(-c3sc(NC(=O)c4ccccc4)nc3C)cs2)cc1	43%[activator]	-1%
CC(Cl)C(=O)NC1CCCCC1 (configuration not stated)	-8%	6%
Cc1cc(C)cc(NC(=O)c2ccc3nsnc3c2)c1	145%[activator]	10%
Cc1ccc(NC(=O)Cn2c(=O)n(CCC(=O)NCc3ccccc3Cl)c(=O)c3ccccc32)c(C)c1	?	-14%
O=C(NCCc1ccc(Cl)cc1)c1ccc2c(c1)N(Cc1ccc(Cl)cc1)C(=O)CS2	-30%	-1%
CCCCSCCCNC(=O)c1cn(CC)c2ccc(S(=O)(=O)N(C)C3CCCCC3)cc2c1=O	4%	167%[activator]
CC(C)(Oc1ccc(Cl)cc1)C(=O)Oc1ccc(-c2ccc(C#N)cc2)cc1	0%	15%
COc1ccc(NC(=O)C2CCN(S(=O)(=O)c3ccc4c(c3)CCCC(=O)N4)CC2)c(OC)c1	1%	-3%

Part of the list above in order of count of non-hydrogen atoms, low to high:
Molecule	StopGo FLuc	2A Renilla
Cc1c(NC(=O)Cc2ccc(F)cc2)cccc1-c1nc2cccnc2s1	10%	5%
O=C(COC(=O)c1cc(-c2cccs2)nc2ccccc12)c1ccc(Br)cc1	0%	2%
O=C(NCCc1ccc(Cl)cc1)c1ccc2c(c1)N(Cc1ccc(Cl)cc1)C(=O)CS2	-30%	-1%
CC(=O)Nc1cccc(NC(=O)CSc2ccc(-c3sc(-c4ccccc4)nc3C)nn2)c1	22%	-28%
Cc1ccc(NC(=O)Cn2c(=O)n(CCC(=O)NCc3ccccc3Cl)c(=O)c3ccccc32)c(C)c1	?	-14%

(further entries)
Molecule	StopGo FLuc	2A Renilla
CN(CCCOc1ccccc1-c1ccccc1)CCCOc1ccccc1-c1ccccc1	6%	11%
COc1ccccc1OCC(=O)Nc1cc(-c2ccc(C)cc2)no1	0%&43%	-9%&-5%
Cc1ccc(/C=N/NC(=O)c2ccccc2C)cc1	30%[activator]	-4%[1.06 µM]
CCOC(=O)c1c(C)sc(-c2c(-c3ccccc3)[nH]c3[nH]c(=O)[nH]c(=O)c23)c1O	-19%	-19%
N#Cc1cc(C(=O)c2cc(Cl)ccc2O)cn(C2CC2)c1=O	-14%	5%
Cc1ccnc(NC(=O)CCc2ncc(-c3ccc(F)cc3F)o2)c1	48%[activator]	-7%
COc1ccc(OC)c(S(=O)(=O)N2CCC(c3ccncc3)CC2)c1	0%	101%[activator]
Cc1ccc([N+](=O)[O-])cc1S(=O)(=O)Nc1cccc(C#Cc2cccs2)c1	-5%	0%
CCOc1ccc(CCNC(=O)CCc2cn(Cc3ccc(F)cc3)c3ccccc23)cc1	-10%	-5%
COc1ccc2c(c1)c(C(=O)O)c(C)n2-c1ccccc1	11%	6%
CC(C)Cn1nc(C(=O)NCc2ccccc2F)c2ccccc2c1=O	8%	123%[activator]
CC(NC(=O)C12CC3CC(CC(Cl)(C3)C1)C2)c1cccc(Cl)c1 (configuration not stated)	8%	2%
COc1ccc2c(=O)c(-c3ccc(OC)c(OC)c3)c(C)oc2c1	8%	-2%
CC1(C)CCCC(C)(C#CCN2CCN(C(c3ccccc3)c3ccccc3)CC2)O1 (configuration not stated)	20%	11%
CC(=O)Nc1ccc(NC(=O)CCC(=O)c2ccc(C)cc2)cc1	-4%	0%
CCOc1ccccc1C(=O)Nc1c(C(=O)N2CCN(C)CC2)oc2ccccc12	8%	16%
CCc1nc(C#N)c(NCC(c2cccs2)N2CCOCC2)o1 (configuration not stated)	11%	6%
COc1ccc(NC(=O)COc2ccc(C(C)C)cc2)c2cccnc12	?	?
COc1ccc(-c2nc(CC(=O)NC3CCN(Cc4ccccc4)CC3)cs2)cc1OC	-4%	-4%
CC(C)c1cc(-c2nc(-c3ccc(Cl)cc3)no2)n[nH]1	104%[activator]	-15%
O=C(NNC(=O)c1ccccc1OCC1CCCO1)c1cc2ccccc2cc1O (configuration not stated)	15%	-10%
CC(=O)c1ccc(N2CCN(C(=O)c3cn(-c4ccccc4)nc3-c3cccnc3)CC2)cc1	0%	6%
CCN1CCC(N(Cc2cccc(OC)c2)C(=O)Nc2ccccc2OC)CC1	-22%	-11%
COc1ccc(CCNC(=O)Cn2c(=O)cc(C(F)(F)F)c3c(C)nn(C)c32)cc1OC	-22%	-20%
Cc1ccsc1C(=O)Nc1ccc(SC2CCCC2)cc1	17%	22%
COc1cc(C(CC(=O)Nc2cc(C)ccn2)N2Cc3ccccc3C2=O)cc(OC)c1OC (configuration not stated)	-10%	-1%
CCn1nc(C(=O)Nc2nc3ccccc3[nH]2)c2ccccc2c1=O	8%	48%[activator]
CN(Cc1ccccc1)C(=O)COC(=O)c1ccc2ccccc2n1	2%	-11%
CC(C)Cn1c(COc2ccc3cc(Br)ccc3c2)n[nH]c1=S	0%	1%
CC(=O)c1cc2c(cc1N/C(=N/S(=O)(=O)c1ccc(F)cc1)c1ccccc1)OCO2	-2%	-11%
COc1ccc(S(=O)(=O)NCCc2nnc3ccc(SCC(=O)Nc4ccccc4C)nn23)cc1	-16%	2%
CCCCCCn1nc(C(=O)Nc2cccc(S(=O)(=O)NC(C)(C)C)c2)c2ccccc2c1=O	12%	178%[activator]
Cc1cc(C)nc(NC(=O)CCSc2ccc(Cl)cc2)n1	11%	-9%
CC1CCCN(c2nc3ccccc3nc2NS(=O)(=O)c2ccccc2)C1 (configuration not stated)	8%	48%[activator]
O=C(COc1ccc2oc3c(c2c1)CCCC3)Nc1cccc(Br)c1	11%	7%
COc1cccc(CNC(=O)c2ccc(N3CCOCC3)c(NC(=O)Nc3cc(F)ccc3F)c2)c1	22%	248%[activator]
CCOc1ccc(NC(=O)c2ccc(NC(=O)N3CCSc4ncccc43)cc2)cc1	?	-12%
CCC1(C)NC(=O)N(NC(=O)CCCc2c[nH]c3ccccc23)C1=O (configuration not stated)	4%	-4%
COc1ccc(Oc2coc3cc(OC(C)C(=O)OC4CCCCC4)ccc3c2=O)cc1 (configuration not stated)	-6%	-11%
COC(=O)c1c(NC(=O)COc2ccc(OC)cc2)sc2c1CCC(C)C2 (configuration not stated)	-31%	17%
CC(Sc1nnc2c(Cl)cc(C(F)(F)F)cn12)c1ccc(F)cc1 (configuration not stated)	-5%	12%
Cc1cccc2[nH]c(C(=O)O)cc12	12%	0%
CC(OC(=O)c1cc[n+]([O-])cc1)C(=O)Nc1ccc2ccccc2c1 (configuration not stated)	5%	-2%
Cc1ccc(NC(=O)CN2C(=O)C3(SCC(=O)N3c3ccc(C)cc3)c3ccccc32)cc1 (configuration not stated)	-19%	-8%
COc1cccc(NC(=O)CSc2nc(O)c(C/C=C/c3ccccc3)c(=O)[nH]2)c1	0%	-10%
COc1cc(C)ccc1Oc1ccc(NC(=O)c2ccc3c(c2)NC(=O)CS3)cn1	?	25µM*
COC(=O)c1cc(-c2cnn(C)c2C)nc2ccccc12	2%	-2%
Cc1oc2cc(OCC(=O)c3ccccc3)ccc2c(=O)c1-c1ccccc1	91%[activator]	-1%
CCOc1ccc(NC(=O)CCS(=O)(=O)c2cc3c4c(c2)CCN4C(=O)CC3)cc1	-15%	-13%
CCNc1nc(SCC(=O)N2CCC2)nc2ccccc12	-8%	-6%
O=C(Nc1ccc2[nH]c(=O)[nH]c2c1)c1nn(-c2ccc(F)c(F)c2)c2c1CCC2	3%	6%
CCc1ccc(OC(=O)c2ccccc2F)cc1	16%	12%
CCc1cc(=O)n(CC(=O)Nc2cccc(C#N)c2)c(-c2ccccc2)n1	5%	14%
COCCNC(=O)C1CCN(Cc2cc3ccccc3n2Cc2ccc(C)cc2)CC1	-19%	-9%

Source: PubChem
